Ba CapD inh: Bacillus anthracis CapD inhibitors, primary screen, biochemical, fluorescence intensity; CapD gamma-glutamyltranspeptidase (Bacillus anthracis Ames Ancestor); purified CapD enzyme, fluorescence intensity read-out; hits give low values; some hits fall short of the stated cut; z-score (concentration not given with the values); 140,000 compounds, 0.23% hits;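 active = z-score under -4 in either of two replicates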;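 note: stock transfer was 100 nL into about 40 µL; score is relative to mean and spread of the plate; one replicate is shown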
AID504770: growth inhibition of E. coli YBA685, primary screen, V. cholerae RctB inhibitors; E. coli YBA685 rctB-dependent plasmid, OD600 growth, 3 h; hits give low values; z-score (test concentration not listed); 130,000 compounds, 0.27% hits; AID 504770, 2011;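 active = z-score under -2 on both plates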;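 note: wells of about 30 µL received 100 nL stock; score is relative to mean and SD of the test wells; the first replicate is given; strong numbers were not always called active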
The depositor's hits bear a star; i = inactive; · = not tested or not shown.

The line under a structure holds: AID504770, Ba CapD inh
> COc1cc(OC)nc(C(c2ccccc2)N2CCc3ccccc3C2)n1 (centres undefined)
    ·, -0.42
> O=[N+]([O-])c1cc(S(=O)(=O)Nc2cc3c4c(oc3c3ccccc23)CCCC4)ccc1Cl
    ·, 0.285
> O=C(OCn1nnc2ccccc2c1=O)c1cccc(S(=O)(=O)N2CCCCC2)c1
    2.95, ·
> CS(=O)(=O)c1ccc(N(Cc2ccccn2)C(=O)c2ccc(C(F)(F)F)cc2)cc1
    ·, -0.56
> COc1cc(C2CC(=O)n3nc(-c4ccccc4)nc3S2)cc(OC)c1OC (centres undefined)
    1.6, -0.09
> CCCn1c(NCc2ccc(Cl)cc2)nc2ccccc21
    -0.05, -0.535
> CCN(CC)S(=O)(=O)c1ccc(C2CNC(=O)C2)cc1 (centres undefined)
    -1.1, 0.1
> c1nc(NCCN2CCOCC2)c2ccsc2n1
    0, ·
> CCOCCOC(=O)C(C)Oc1ccc2c(=O)c(-c3ccccc3OC)c(C(F)(F)F)oc2c1 (centres undefined)
    ·, -0.26
> CN(CC(=O)N1CCc2ccccc2C1)S(=O)(=O)c1cnc[nH]1
    0.1, -0.235
> O=C(Nc1cnn(Cc2ccc(Cl)cc2)c1)c1ccccc1
    0.25, 0.605
> CC(C)C1(O)c2ccccc2-c2ncccc21 (centres undefined)
    0.25, -0.3
> C/[N+]([O-])=C\C1C(=O)CCCC1=O
    0.4, -0.485
> COC(=O)C1C(C(C)C)N(c2ccccc2)OC1(C)O (centres undefined)
    -0.35, ·
> CC(=O)OCC(=O)[C@@]1(O)CCC2C3CCC4=CC(=O)CC[C@]4(C)C3[C@@H](O)C[C@@]21C (some centres undefined)
    0.4, -0.415
> O=C(CCCCCn1c(=S)[nH]c2ccc(Br)cc2c1=O)NCCc1c[nH]c2ccccc12
    ·, -0.13
> CCCN(CC(=O)Nc1ccccc1C)C(=O)c1cc(=O)[nH]c2ccccc12
    0.15, ·
> Cc1ccc(NC(=O)/C(CN(C)C)=N\O)cc1
    -0.6, -0.135
> CC(=O)c1cccc(N2C(=O)/C(=C/c3ccc(-c4ccc([N+](=O)[O-])cc4)o3)C=C2c2ccccc2)c1
    ·, -0.44
> O=C(Nc1ccccc1)OCC#Cc1ccc(-c2ccccn2)s1
    -0.15, 87.4
> O=C(NCc1ccccc1)c1nnc(-c2ccc3c(c2)OCO3)o1
    -1.3, 2.27
> CCOC(=O)C1CCN(CC(=O)c2ccc(OC)cc2)CC1
    0, 0.65
> Cc1cccc(-n2c3nc(=O)[nH]c(=O)c-3cc3ccccc32)c1
    -0.3, 6.19
> Cc1[nH]nc2c1C(c1ccccc1OCc1cccc(Br)c1)C(C#N)=C(N)O2 (centres undefined)
    ·, 0.7
> COc1ccc(-c2oc(NC(=O)C(F)(F)F)c(C#N)c2-c2ccc(OC)cc2)cc1
    ·, 6.14
> CC1(C)Cc2c(sc(/N=C/N3CCCC3)c2C#N)C(C)(C)N1
    1, ·
> CCOC(=O)c1sc(NC(=O)c2ccc(C)c(S(=O)(=O)N3CCCCC3)c2)c(C(=O)OCC)c1C
    ·, -0.14
> Cn1cc(/C=N/NC(=O)c2cc(C3CC3)nc3ccccc23)c2ccccc21
    ·, 0.635
> NC(=S)c1ccccc1N
    0.65, -1.19
> Cc1nnc(SCC(=O)Nc2ccc3[nH]c(=O)[nH]c3c2)n1-c1ccccc1
    -0.6, ·
> COc1ccc(C(=O)COC(=O)c2ccc(N(C)C)cc2)cc1
    -0.65, ·
> CCc1ccccc1NC(=O)c1c[nH]c2ccccc2c1=O
    0.4, -3.58
> CCC(=O)c1ccc(OC)c(F)c1
    -0.1, -0.02
> CCC(=O)Nc1nc(-c2ccc3c(c2)OCO3)nc2c1c(=O)oc1ccccc12
    ·, -0.14
> Nc1ccc(Cc2nc3ccccc3s2)cc1
    0.05, ·
> CNC(=O)Cc1c(Cl)sc2ccccc12
    -0.15, -0.93
> COc1cccc(CNCc2ccccc2)c1
    -0.25, ·
> Cc1cc(-c2onc(C)c2COC(=O)N2CCN(C(=O)Cc3ccc(Br)cc3)CC2)no1
    ·, 0.505
> O=c1ccc(S(=O)(=O)N2CCCC2)cn1Cc1cc(=O)n2cc(Br)ccc2n1
    0.6, ·
> O=C(Cc1ccc(Cl)cc1Cl)NC1CC1
    -0.25, ·
> Cc1cccn2c(=O)c(C=NCc3ccco3)c(Nc3ccc(Cl)cc3)nc12
    2.15, ·
> CCOC(=O)Nc1ccc2c(COC(=O)c3oc4ccc(Br)cc4c3C)cc(=O)oc2c1
    -0.7, ·
> CCn1c2ccccc2c2cc(CN3CCN(C(=O)CCCCNC(=O)OC(C)(C)C)CC3)ccc21
    ·, 8.21
> COC(=O)c1cc(NC(=S)NN(C)C)ccc1Cl
    1, -0.2
> N#CC1=C(N)N2C(=C(C#N)C13CCCC3)Nc1ccccc12
    -0.9, ·
> CC1(C)CC(=O)c2cc(-c3ccccc3)n(CC(=O)O)c2C1
    -0.65, ·
> O=C(c1ccc(Cl)cc1)N1CCN(c2cc(=O)[nH]nc2-c2ccccc2)CC1
    ·, -0.26
> COCCCn1c(=O)/c(=C\c2ccc(Br)cc2)s/c1=C(/C#N)C(=O)NCc1ccco1
    -1.05, ·
> O=C(NN=C1CCCC1)c1cccnc1
    2.45, 0.405
> Cc1ccc(S(=O)(=O)N(Cc2nc(-c3ccccc3)no2)C2CCCCC2)cc1
    -0.15, -0.435
> CCOc1ccc(NC(=O)c2ccc(F)c(S(=O)(=O)N3CCN(Cc4ccc5c(c4)OCO5)CC3)c2)cc1
    ·, -1.27
> Cc1ccc([N+](=O)[O-])cc1NC(=O)/C(=C/c1cccc([N+](=O)[O-])c1)NC(=O)c1ccccc1Br
    ·, -0.395
> Oc1ccc(Cl)cc1Sc1cc(Cl)ccc1O
    -7.1*, 0.585
> CNC(=O)O/N=C/c1nn(C(C)=O)cc1Br
    1.4, -0.87
> O=C(NC1CCCCC1)c1cccc(S(=O)(=O)NCc2ccccc2)c1
    2.05, -0.505
> O=C1Nc2ccc(Br)cc2C1O (centres undefined)
    ·, 0.535
> CCOC(=O)C1=C(C)N=c2s/c(=C\c3ccc(OC)c(OC)c3)c(=O)n2C1c1ccc2c(c1)OCO2 (centres undefined)
    ·, -0.145
> CCN(CC)S(=O)(=O)c1ccc(C(=O)N2CCN(Cc3ccccc3)CC2)cc1
    0.4, i
> Cc1oc(-c2ccccc2)nc1C(=O)OC(C)c1nc2sc(C)c(C)c2c(=O)[nH]1 (centres undefined)
    1.1, ·
> Cn1cc(C(=O)NCCN2CCN(Cc3ccccc3)CC2)c2c3ccccc3n(C)c2c1=O
    -0.7, 38.9

Next section:
The line under a structure holds: AID504770, Ba CapD inh
> COc1cccc(C(=O)N/N=C/c2cc(C)cc(C)c2)c1
    ·, 0.335
> COc1ccccc1C1CC(c2ccc(Br)cc2)=NN1C(=O)c1cccnc1 (centres undefined)
    ·, -0.755
> Cc1ccc(-n2cnc3cc(NCc4cccs4)ccc32)cc1
    0.4, 81.1
> COc1ccc2c(c1)NC(=O)CC(C)(C)O2
    -0.7, 1.17
> O=C(NCc1ccccc1)c1cc2sccc2s1
    -0.3, -0.935
> O=C(Nc1nccs1)c1ccccc1C(F)(F)F
    0.45, 0.215
> CCCN1CCC(N(C(=O)Nc2cccc(C(F)(F)F)c2)c2ccc3[nH]c(C(C)(C)CC)cc3c2)CC1
    ·, -0.54
> O=C(CSc1nc2ccsc2c(=O)n1C1CC1)OCc1ccccc1
    -0.45, -0.595
> Cc1ccc(-c2nn(CC(N)=O)c(=O)c3ccccc23)cc1
    0.45, 0.105
> O=[N+]([O-])c1ccc(NCCCO)cc1Sc1nc2ccccc2[nH]1
    ·, -2.42
> COC(=O)C1=CN(CCCN2CCCC2=O)C=C(C(=O)OC)C1c1cccs1
    -0.85, ·
> CN(C)CC/C=C1/c2ccccc2COc2ccccc21
    0.45, -0.04
> O=C(OCc1nc2sc3c(c2c(=O)[nH]1)CCCC3)c1cc2c(s1)CCC2
    0.6, ·
> Cc1cc(N2CC(C)CC(C)C2)nc2ccc(NC(=O)CCC(=O)N3CCCC3)cc12 (centres undefined)
    0.1, 0.13
> CSc1ccccc1C(=O)NC(C)C
    -0.35, 0.375
> c1ccc2c(c1)C(=NCC1CCCO1)NC2=NCC1CCCO1 (centres undefined)
    -0.5, ·
> Cc1[nH]n(-c2cccc(Cl)c2)c(=O)c1N=Nc1cccc(C(F)(F)F)c1
    ·, 0.26
> Cc1ccc(C2NC(=O)c3c(sc4c3CCC(C(C)(C)C)C4)N2)o1 (centres undefined)
    -0.05, 0.16
> COc1ccccc1-c1nnc(Cc2ccc(F)cc2Cl)o1
    -0.15, 0.27
> N#CC1(C#N)[C@@H]2c3ccccc3C=CN2[C@@H](C(=O)c2ccc(Cl)cc2)[C@@H]1c1cccc2ccccc12
    ·, 5.93
> Nc1nc(Cl)cc(N2CCCCC2)n1
    0.25, ·
> CCNc1nc(NCC)nc(OCCNC(=O)COc2ccc(Cl)cc2Cl)n1
    ·, 0.1
> Cc1ccc(Cn2c(CN3CC(C)OC(C)C3)nc3c2c(=O)[nH]c(=O)n3C)cc1 (centres undefined)
    1.1, 12.5
> CC(C)NC(=O)Nc1ccccc1C(=O)N=c1sc2ccccc2n1C
    -0.6, ·
> COc1ccc(S(=O)(=O)Nc2cccc3cc(C(=O)N4CC(C)OC(C)C4)[nH]c23)cc1 (centres undefined)
    ·, -0.2
> CCn1cc(C(=O)N(Cc2ccc(F)cc2)C2CCCCC2)c(=O)c2ccc(C)nc21
    -0.1, ·
> Nc1scc[n+]1Cc1cccc2cccnc12
    0.3, 0.325
> CCN(CC)c1ccc(CN2CCN(Cc3ccccc3)CC2)cc1
    0.9, 0.415
> COc1ccc(Cc2nnc3n2N=C(N)CS3)cc1
    -0.1, ·
> O=C(NCc1cccnc1)OCc1nc(-c2ccc(Cl)cc2)cs1
    ·, -0.545
> C/C(=N\OCC(=O)N1CCN(c2ccccc2)CC1)c1ccccc1
    0.9, ·
> COC(=O)c1sc(SC)c(C#N)c1-c1cccs1
    -0.55, -0.41
> c1csc(C2NCCc3[nH]cnc32)c1 (centres undefined)
    -0.2, 0.505
> c1ccc(SCc2cccc(CSc3ccccn3)n2)nc1
    -1.65, -0.8
> COc1ccc(I)cc1S(=O)(=O)N1CCOCC1
    -0.1, ·
> O=C1c2ccccc2C(=O)N1CN(C(=O)c1ccccc1)c1ccc(O)cc1
    -0.4, -0.205
> COC(=O)c1cnn(C(=O)Nc2c(C)cccc2C)c1C(OC)OC
    -0.85, 1.1
> CC(C)(C)OC(=O)N1CCN(C2CC(=O)N(c3ccccc3)C2=O)CC1 (centres undefined)
    0.6, 0.65
> O=C(Cn1c(=O)oc2cc(S(=O)(=O)N3CCCC3)ccc21)Nc1ccc(Cl)cn1
    -0.4, -0.06
> CCOc1ccccc1-n1c(=S)sc2c(=O)n(-c3cc(OC)ccc3OC)c(=S)[nH]c21
    ·, -1.39
> O=C1c2ccccc2C(=O)N1c1ccc(Cl)cc1
    0.25, 33.4
> Cc1ccc(-n2nc(C)c3c(C)c(CCC(=O)NCc4ccc5c(c4)OCO5)c(C)nc32)cc1
    1.15, 3.49
> CC1CC(C)CN(S(=O)(=O)c2ccc(F)c(C(=O)Nc3c(F)cc(F)cc3Br)c2)C1 (centres undefined)
    ·, -0.22
> O=C(CC(SCc1ccc(Cl)cc1)C(=O)O)c1ccc(Cl)cc1 (centres undefined)
    -0.05, 0.32
> Brc1ccc2ncnc(Nc3ccc(N4CCCC4)cc3)c2c1
    -0.9, -0.02
> O=S(=O)(NC1CCCC1)c1cccc(S(=O)(=O)N2CCCCC2)c1
    -0.6, ·
> CCc1ccc(S(=O)(=O)NCCc2csc(C)n2)cc1
    -2.1, ·
> CC1CCN(C(c2ccccc2)c2nnnn2Cc2ccc(F)cc2)CC1 (centres undefined)
    1.5, ·
> COc1ccc(-c2ocnc2C(=O)NCc2nn(-c3ccccc3)nc2C)cc1
    -0.5, 19.2
> CN(C)c1ccc2cc(C(=O)O)[nH]c2c1
    0.8, ·
> CC1CCc2sc(C(=O)OC3CCCCC3=O)cc2C1 (centres undefined)
    -1.15, ·
> Cc1nnc(C)n1/N=C\c1cccc(O)c1
    1.9, -0.55
> Clc1ccc(SC2CN(C(c3ccccc3)c3ccccc3)C2)cc1
    1.1, 0.105
> Cc1cccc(NC(=O)CSc2ccc3ccccc3c2)n1
    0.85, 1.53
> CCNc1c2c(nc3ccccc13)CC(C)(C)CC2=O
    0.45, -1.12
> N#Cc1ccccc1NC(=O)COC(=O)c1ccccc1I
    0.25, ·
> CC(=O)N(CCc1ccccc1)C1CC(=O)N(c2ccccc2)C1=O (centres undefined)
    2.15, 0.85
> Cc1noc(C)c1C(=O)NCCC12CC3CC(CC(C3)C1)C2
    -0.55, ·
> COc1cccc(OC)c1C(=O)Nc1ccccc1NC(=O)c1c(OC)cccc1OC
    0.05, 0.085
> Cc1cc(=O)[nH]c2nnc(SCC(=O)NC(C)C)n12
    0.1, ·
> CCOC(=O)c1cccc(-c2ccc(/C=C3\C(=N)N4N=C(N5CCCC5)SC4=NC3=O)o2)c1
    0.6, -0.285
> COc1ccc(N=C2SC(C(=O)Nc3ccccc3OC)CC(=O)N2CCc2ccc(OC)c(OC)c2)cc1 (centres undefined)
    ·, 0.155

Source: PubChem

Not all compounds are listed; count on the stated rates, not on these rows.
